Screening results (PubChem)
RecA splice inh: inhibitors of M. tuberculosis RecA intein splicing; P9WHJ3; cell-free RecA intein splicing, fluorescence; inhibition, %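 (about 9 µM by stock and volumes)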; 0.75% of 290,000 active; AID 2221; in the data active = inhibition above about 30%; inconclusive = no clear call, values can overlap the other calls;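 also: 0% = vehicle wells and 100% = reference inhibitor control wells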
Target sequence (P9WHJ3 whole entry, looked up, canonical isoform): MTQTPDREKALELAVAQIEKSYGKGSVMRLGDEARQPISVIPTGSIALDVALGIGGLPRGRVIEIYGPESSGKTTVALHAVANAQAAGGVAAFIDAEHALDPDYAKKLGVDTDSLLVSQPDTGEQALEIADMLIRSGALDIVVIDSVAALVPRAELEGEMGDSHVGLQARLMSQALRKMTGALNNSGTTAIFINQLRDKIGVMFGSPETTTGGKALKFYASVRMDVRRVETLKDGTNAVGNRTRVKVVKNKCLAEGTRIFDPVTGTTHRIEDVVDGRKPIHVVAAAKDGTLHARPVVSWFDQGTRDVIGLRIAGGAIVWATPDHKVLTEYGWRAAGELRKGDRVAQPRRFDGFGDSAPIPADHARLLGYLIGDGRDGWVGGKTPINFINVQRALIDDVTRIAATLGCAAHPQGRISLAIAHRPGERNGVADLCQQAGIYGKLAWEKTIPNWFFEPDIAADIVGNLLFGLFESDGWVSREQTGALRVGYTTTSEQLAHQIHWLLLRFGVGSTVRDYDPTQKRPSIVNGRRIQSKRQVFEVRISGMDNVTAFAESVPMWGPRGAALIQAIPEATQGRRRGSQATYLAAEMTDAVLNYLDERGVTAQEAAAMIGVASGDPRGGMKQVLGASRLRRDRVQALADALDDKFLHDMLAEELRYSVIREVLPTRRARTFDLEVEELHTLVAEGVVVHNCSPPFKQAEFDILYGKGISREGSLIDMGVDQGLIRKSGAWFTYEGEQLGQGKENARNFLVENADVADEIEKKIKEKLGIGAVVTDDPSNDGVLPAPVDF
YopH PTP inh: blocks Yersinia enterocolitica YopH tyrosine phosphatase; fluorescence Ex485/Em525; 0.16% of 140,000 active; inhibition, %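 (about 10 µM by stock and volumes)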; AID 898;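 active = inhibition of 50% or more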;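 also: controls were vehicle for no effect and minimum signal wells for full effect; inactives centre near -20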
Mtb H37Rv: M. tuberculosis H37Rv growth inhibitors, H37Rv strain (AID 1626). 0.95% of 220,000 active. M. tuberculosis H37Rv growth inhibition; higher % means a stronger effect. one-dose inhibition, % at 10 µM; IC50 in µM for titrated hits;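 active = confirmed in a dose series; inconclusive = inhibition above 80% but not taken into the dose series; inactive = below 80% or under 30% at every dose of the series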;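 also: bacteria incubated seven days before Alamar blue readout; 0% = bacteria only wells and 100% = bacteria with antibiotic wells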
Mtb bLac sens: beta-lactam sensitization of Mtb H37Rv. M. tuberculosis H37Rv growth with meropenem, percent inhibition; hits of this screen are not shown here. inhibition, % at 25 µM. 0.27% of 330,000 active. AID 434955;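 active = about 74% or more and at least 40 points above the plate without the antibiotic, then above 30% in a dose series; inconclusive = first-round hits that could not be retested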;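 also: growth measured after seven days incubation then overnight dye step; 0% = bacteria only wells and 100% = bacteria with antibiotic; twin plates without the antibiotic show which effects depend on it; some results filed as inactive read as strong as hits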
Arbovirus inh: arbovirus infection inhibition; arbovirus infection cell-based antiviral screen; 0.37% of 200,000 active; inhibition, % at 10 µM;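 active = inhibition from about 30%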;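 also: bluetongue infection of BSR cells; cell survival read as ATP light after 72 h; 0% = infected wells without compound and 100% = uninfected wells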
Arbovirus inh repeat: also measured in Arbovirus inh; calls as there; inhibition, %; measured here: 10K subset replicate screen; many hits read low in the repeat;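 first of two repeat runs on a subset; 0% = infected and 100% = uninfected wells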
* marks the source's active call; other numbers are inactive results; i = inactive; ? = inconclusive; . = not tested or not shown.

SMILES	RecA splice inh	YopH PTP inh	Mtb H37Rv	Mtb bLac sens	Arbovirus inh	others
N#Cc1c(-c2ccccc2)nc(SCc2cccc(Cl)c2)[nH]c1=O	14.3	.	.	-9.4	.
CC(=O)NC12CC3CC(C1)CC(C(=O)Nc1nc4ccc(F)cc4s1)(C3)C2	0.5	.	.	95.6	.
CCOc1ccc(CCNC(=O)CCNC(=O)c2ccccc2Cl)cc1OCC	0.8	.	.	-7.0	.
Cc1ccc2c(c1)N(C(=O)CCC(=O)NC1CCCCCC1)CCO2	2.2	.	.	-1.0	.
CSc1ccccc1C(=O)C1CCCN(Cc2ccccn2)C1 (stereo not drawn)	0.1	.	4.2%	38.4	3.7
CCOc1cc(CN2CCC(CO)(Cc3cccc(C(F)(F)F)c3)CC2)ccc1OC	0.2	.	1.9%	6.0	-21.6
CCN1C(=O)C(NC(C)=O)c2cc(OC)ccc21 (stereo not drawn)	-3.4	-12.8	-14.1%	-11.6	7.7
O=C1c2cccc3cccc(c23)C(=O)N1CCN1CCN(CC(O)COc2ccccc2)CC1 (stereo not drawn)	-1.4	-8.9	71.2%	62.0	15.5
O=C1N/C(=N/NC(=O)c2cccc3ccccc23)S/C1=C\c1ccccc1OCc1ccccc1	.	-36.7	-3.5%	.	-23.9
CCOc1ccc(NC(=O)CN2CCN(S(=O)(=O)c3ccc(Cl)cc3)CC2)cc1	-1.9	-19.3	-6.7%	-3.4	-11.9
Cc1cc(C(C)(C)C)cc(C)c1CC1=NCCN1	-1.3	-36.5	-4.8%	-7.4	13.2
COCCNC(=O)c1cn(C)c(=O)c2cc(OC)c(OC)cc12	5.9	-56.1	4.8%	?	6.3	Arbovirus inh repeat=-1.7
CC1CN(S(=O)(=O)c2cccc(C(=O)OCc3cc(=O)oc4cc(O)ccc34)c2)CC(C)O1 (stereo not drawn)	-0.4	1.3	-1.6%	3.1	10.6
CCOC(=O)c1[nH]cnc1C(=O)O	-2.1	5.3	-10.2%	-1.5	5.0
Cc1ccc(-c2csc3ncnc(-n4nc(C)cc4N)c23)cc1	0.8	-25.0	5.1%	-7.3	1.0
CCOC(=O)C1CCN(C(=O)c2ccccc2NC(C)=O)CC1	0.5	-28.0	-7.8%	-6.0	2.5
CC(C)(C)C(=O)CC1(O)C(=O)N(Cc2ccc(Cl)cc2)c2ccccc21 (stereo not drawn)	2.3	2.0	-0.3%	11.6	-12.0
O=[N+]([O-])c1cc2c(c(CSc3nnnn3-c3ccc(O)cc3)c1)OCOC2	4.2	-18.8	8.4%	5.3	-8.0
OCC1(CCOc2ccccc2)CCN(CC2=Cc3cc(Cl)ccc3OC2)CC1	6.2	.	6.9%	76.6	-35.4
COc1cccc(-c2nc(-c3ccccc3)[nH]c(=O)c2C#N)c1	-0.1	-22.9	.	92.2	6.1
CC1C/C(=N/NC(=O)c2cccs2)CC(C)(C)C1 (stereo not drawn)	-0.9	-14.0	-5.5%	4.2	-9.5
O=C(NC1CC1)c1cc(Cl)ccc1[N+](=O)[O-]	1.3	-13.1	7.9%	-1.6	-0.3
c1ccc(N2CCN(c3nc4cc5c(cc4s3)OCCO5)CC2)cc1	4.4	-7.2	-3.4%	17.2	4.4
O=C(CSc1nc2cc3c(cc2c(=O)n1CCC1=CCCCC1)OCO3)NCc1ccco1	-1.9	-41.5	.	10.1	-8.0
O=C(NCCn1c(C(F)(F)F)nc2cc(C(F)(F)F)ccc21)[C@H]1CCCN1c1nc(CN2CCCCC2)cs1	-1.2	.	.	-4.4	.
C=CCn1c(O)c(C(CC)=NCCc2c[nH]c3ccccc23)c(=O)[nH]c1=O	3.5	.	1.0%	6.6	.
Cc1c(C(=O)OC(C)C)nnn1-c1nonc1N	-0.6	-25.1	-5.9%	-2.0	8.7
C/C(=N/NC(=O)CN1CCN(Cc2ccccc2)CC1)c1ccc([N+](=O)[O-])cc1	-7.8	.	-2.5%	1.3	.
NC(=O)N/N=C/c1ccccc1OCC(=O)NCc1ccccc1	-4.5	-8.7	4.7%	1.7	-2.5
CCOc1ccc(N2CC(C(=O)Nc3ccc(OC)c(S(=O)(=O)N4CCCCC4)c3)CC2=O)cc1 (stereo not drawn)	-3.4	.	5.8%	-3.0	14.1
COc1ccc(C(=O)Nc2cc3c(oc2=O)CCCC3=O)cc1	-3.4	.	5.8%	-4.6	-0.1
Cc1ccccc1NCN1C(=O)C2CCC(C)(C1=O)C2(C)C (stereo not drawn)	-3.4	.	-3.0%	1.4	.
COc1ccccc1NC(=O)c1ccc(S(=O)(=O)N2CCCC2)cc1	-1.0	-34.9	-0.8%	-0.9	5.2	Arbovirus inh repeat=-2.6
CCc1[nH]nc2c1C(c1ccc(Br)s1)C(C#N)=C(N)O2 (stereo not drawn)	.	-26.6	-1.3%	8.0	-17.1
COc1cccc(OC)c1C(=O)Oc1ccc2c(c1)O/C(=C\c1ccncc1)C2=O	-0.7	-35.7	-1.8%	4.6	-2.7
CCOCCCn1c(=S)[nH]c2cc(C(=O)N3CCN(c4ccccc4)CC3)ccc2c1=O	0.7	.	.	0.2	.
COC(=O)c1c(C)[nH]c(C(C)=O)c1C	-15.1	-36.5	-3.5%	-1.1	2.7
Cc1ccccc1-n1c(O)c(/C=N/NC(=O)c2ccncc2)c(=O)[nH]c1=O	-0.3	.	?	98.9	.
CN(C(=S)Nc1ccc(F)cc1)C(c1ccccc1)c1ccccc1	10.5	.	.	-1.3	.
C=C(C)CNC(=S)NNC(=O)c1ccncc1	.	.	37.4%	96.3	2.7
COc1cccc(C(=O)OCCN(C)C(C)(C)C)c1	-0.4	-31.2	.	-12.2	4.4
COc1cccc(/C=C2/SC(=S)N(CC(=O)Nc3nnc(C)s3)C2=O)c1	.	-32.8	8.4%	.	0.1
O=C(Oc1ccc(Cl)cc1)N1CCCCC1	.	-9.9	3.2%	5.0	0.1	Arbovirus inh repeat=-1.7
Cc1ccccc1C(=O)N1CCC(C(=O)Nc2ccccc2Cl)CC1	0.8	.	.	-2.8	.
Cc1ccc2c(CN(C)Cc3ccc(Cl)cc3)cc(=O)oc2c1	1.8	.	.	9.1	.
NNS(=O)(=O)c1ccc(N2CCCC2=O)c([N+](=O)[O-])c1	-0.1	.	-1.6%	-1.3	21.5
Cc1ccc(N(CC(=O)Nc2c(C)n(C)n(-c3ccccc3)c2=O)S(C)(=O)=O)c(C)c1	1.1	.	-3.1%	-2.3	0.6
CCOC(=O)CCC(NC(=O)CC(=O)NC(CCC(=O)OCC)C(=O)OCC)C(=O)OCC (stereo not drawn)	-2.5	.	-9.6%	-1.5	-3.1
N#Cc1ccccc1CSc1nnc(Cc2ccccc2)o1	2.8	.	0.3%	6.9	0.7
CCOc1ccc(CCNC(=O)CCNS(=O)(=O)c2ccc(Br)cc2)cc1OCC	-2.4	.	.	3.3	.
CN(CC(=O)Nc1ccccc1Cl)C(=O)c1ccccc1Sc1ccccc1C#N	-3.7	.	.	-5.8	.
Clc1ccc(-c2nnc(-c3ccccc3)nc2N2CCSCC2)cc1	6.2	-2.7	2.0%	-4.8	6.5
CCC(=O)Nc1ccc(-c2ccc(N3CCCCC3)nn2)cc1	-0.2	.	.	7.7	.
CCc1cc(CNC(=O)CC2C(=O)NCCN2Cc2c(F)cccc2Cl)on1 (stereo not drawn)	-0.7	.	-0.4%	1.2	4.3
CS(=O)(=O)N(CC(=O)NCc1ccncc1)c1cc(Cl)ccc1Cl	0.5	.	-9.5%	-2.7	-4.7
Nc1cc(=O)[nH]c(SCC(=O)N2CCc3ccccc3C2)n1	-1.4	-9.9	-7.2%	-9.2	-0.6
CCOC(=O)c1cc(C(=O)OCC)c2ccccn2c1=O	i	1.0	10.6%	-7.0	-1.5
COc1ccc(C2C(C(C)=O)=C(O)C(=O)N2c2nccs2)cc1 (stereo not drawn)	-7.4	-30.3	7.3%	-8.0	-1.8
CC(C)C(OC(=O)c1cccc(S(=O)(=O)NCC(F)(F)F)c1)C(=O)NC(N)=O (stereo not drawn)	2.4	.	0.8%	-1.6	-1.3
COc1ccccc1N1CCN(S(=O)(=O)c2ccc(Cl)cc2)CC1	13.3	.	.	1.3	.

Retrieved one by one from the entries so far (three):
SMILES	RecA splice inh	YopH PTP inh	Mtb H37Rv	Mtb bLac sens	Arbovirus inh	others
COc1ccccc1N1CCN(S(=O)(=O)c2ccc(Cl)cc2)CC1	13.3	.	.	1.3	.
COc1ccc(C2C(C(C)=O)=C(O)C(=O)N2c2nccs2)cc1 (stereo not drawn)	-7.4	-30.3	7.3%	-8.0	-1.8
Cc1ccc2c(CN(C)Cc3ccc(Cl)cc3)cc(=O)oc2c1	1.8	.	.	9.1	.

New compounds follow
SMILES	RecA splice inh	YopH PTP inh	Mtb H37Rv	Mtb bLac sens	Arbovirus inh	others
CC1Cc2cc(/C(O)=C3\C(=O)C(=O)N(Cc4cccnc4)C3c3ccccc3F)ccc2O1 (stereo not drawn)	-0.3	.	.	-0.9	.
O=C1CN=C(c2ccccc2F)c2cc(Cl)ccc2N1	5.6	-51.6	-4.3%	-0.4	-6.1
O=C(CCCN1C(=O)/C(=C\c2cccs2)SC1=S)Nc1ccc(O)cc1	66.6*	.	.	1.7	.
Cc1ccc(NC(=O)c2cc(-c3cccc(O)c3)on2)cc1C	3.1	-29.1	39.2%	80.2	-0.5	Arbovirus inh repeat=13.9
COn1c(-c2ccccc2)nc2ncccc21	-2.4	.	.	-4.5	.
CC1CCN(C(=O)C(Cc2ccccc2)NS(=O)(=O)c2ccc3c(c2)oc(=O)n3C)CC1 (stereo not drawn)	.	-5.2	-0.7%	-4.7	2.9	Arbovirus inh repeat=-0.3
COC(=O)Cc1cc(=O)n2[nH]cnc2n1	-1.3	-6.9	-3.3%	-23.7	5.5
O=S(=O)(CCc1ccncc1)c1ccc(Cl)cc1	-1.8	.	.	-4.3	.
FC(F)(F)c1cccnc1-n1cncn1	0.3	.	-6.3%	-7.9	.
COc1cc(/C=N/N=C(N)N)ccc1OCc1ccc(Cl)cc1	9.9	.	?	13.8	-28.9
Cc1nc(C(F)(F)F)c(C(=O)O)cc1-c1nc(-c2ccccc2)cs1	-0.6	.	.	-5.7	.
CCOC(=O)c1c(NC(=O)Cn2cnc([N+](=O)[O-])n2)sc(C)c1C	4.0	.	0.7%	4.2	-5.5
O=C(CN1CCC(NC(=O)c2ccco2)CC1)Nc1ccccc1[N+](=O)[O-]	-0.1	.	-3.4%	-9.9	6.2
C/[N+]([O-])=C\C1C(=O)CC(C)(C)CC1=O	-4.9	.	5.3%	-3.4	2.5
Cc1cccc(NC(=O)Nc2ccc(Br)cc2)n1	-0.2	.	.	3.8	.
Nc1c(C=C2C=CC(=O)C=C2)c(=O)nc2sc(CC(=O)N3CCCCC3)nn12	3.8	.	.	4.4	.
Cc1nnc(SCc2nc3ccccc3s2)n1N	0.8	.	5.8%	-2.7	-0.5
CC1=NN(c2nc(-c3ccc(C)cc3)cs2)C(=O)C1N=Nc1cccc(C)c1 (stereo not drawn)	3.6	-22.4	4.0%	90.0	3.0
Nc1cc(=O)[nH]c(SCC(=O)NC2CCCc3ccccc32)n1 (stereo not drawn)	-18.0	.	3.5%	-1.0	.
COC(=O)C1=CN(Cc2ccc(F)cc2)C=C(C(=O)OC)C1c1cc(OC)c(OC)c(OC)c1	-52.0	.	.	2.0	.
Cn1c(/C=C/c2ccc(Cl)cc2)c([N+](=O)[O-])c(=O)n(C)c1=O	-3.2	.	.	86.3	.
O=C(Cn1cnc2c(nnn2-c2ccccc2)c1=O)NCCc1ccccc1	0.0	-19.9	-5.6%	-1.3	1.0	Arbovirus inh repeat=-3.2
CSc1ccc(S(=O)(=O)NC2CCCCCC2)cc1	7.1	20.6	-4.4%	-5.7	-7.1
Cc1ccc(S(=O)(=O)N2CCOC2CNC(=O)C(=O)NCc2ccccc2)cc1 (stereo not drawn)	1.3	.	.	1.5	.
COC(=O)Cn1c(CCS(=O)(=O)c2ccc(C)cc2)nc2ccccc21	1.7	32.7	2.8%	10.3	-1.1
N/C(=N\c1nc2ccccc2o1)NC(=O)c1cccc(Br)c1	0.2	.	-6.2%	0.4	.
CC(OC(=O)CCN=C1NS(=O)(=O)c2ccccc21)C(=O)N(C)C1CCCCC1 (stereo not drawn)	-0.4	.	.	-0.1	.
COc1ccc(S(=O)(=O)N2CCOCC2)cc1NC(=O)COC(=O)c1ccc(C)s1	2.0	.	4.5%	.	-2.2
CC(C)CNC(=S)NC(=O)c1csc([N+](=O)[O-])c1	-21.0	.	.	99.8	.

As a working copy, some entries already given:
SMILES	RecA splice inh	YopH PTP inh	Mtb H37Rv	Mtb bLac sens	Arbovirus inh	others
COc1ccc(S(=O)(=O)N2CCOCC2)cc1NC(=O)COC(=O)c1ccc(C)s1	2.0	.	4.5%	.	-2.2
CC(C)CNC(=S)NC(=O)c1csc([N+](=O)[O-])c1	-21.0	.	.	99.8	.

Only part of the results is shown, so the mix of outcomes need not match the whole.
